# UUG fidelity = modulators of yeast start codon fidelity, primary screen, whole organism, S. cerevisiae, single point, plate reader; S. cerevisiae UUG-firefly luciferase reporter, luminescence/redox ratio; activity score, % at 18.7 µM; 350,000 compounds, 0.13% hits; AID 602363, 2012;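 active means replicate mean at a twofold rise or more, about +100% in these data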;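 further: firefly luciferase made from a UUG start codon reports start codon fidelity; reporter light over untreated wells divided by growth signal over untreated wells; some hits fall short of that in this replicate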
# HIV Env fusion = inhibitors of HIV-1 Env-driven cell-cell fusion, primary screen, HeLa-JRFL effector, CEM21 target cells, luciferase; inhibition, % at 12.3 µM; 360,000 compounds, 1.1% hits; AID 651610, 2012;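 active means mean replicate inhibition score of at least 50 and every replicate individually at or above 50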;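 further: 0% = plate neutral controls and 100% = maraviroc near 300 nM; one replicate is shown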
# Starred values were filed as active, the others as inactive; & = joins results of further samples; ! = not confirmed by another sample; [ ] = dose if it differs, or a comment. The list is partial; rates above refer to the full screens.
# Sequence of screens: HIV Env fusion | UUG fidelity
C[C@@H]1CN([C@@H](C)CO)C(=O)Cc2cc(NS(C)(=O)=O)ccc2O[C@H]1CN(C)Cc1ccc(C(=O)Nc2ccccc2N)cc1
  -3[16.7 µM] | -10
CC(C)NC(=O)Nc1ccc2c(c1)C(=O)N([C@@H](C)CO)C[C@H](C)[C@@H](CN(C)Cc1ccc(Cl)c(Cl)c1)O2
  -3[16.7 µM] | 11
O=C(N[C@@H]1C=C[C@@H](CC(=O)N2CCOCC2)O[C@H]1CO)c1ccccn1
  -9[16.7 µM] | -8
CCC(=O)Nc1ccc2c(c1)OC[C@@H](C)N(C(C)=O)C[C@H](C)[C@@H](OC)CN(C)C2=O
  -23[16.7 µM] | -8
C[C@H](CO)N1C[C@H](C)[C@H](CN(C)C(=O)NC2CCCCC2)Oc2ccc(NC(=O)Cc3ccccc3)cc2CC1=O
  -4[16.7 µM] | 17
C[C@@H]1CCCCO[C@H](CN(C)S(=O)(=O)c2cccs2)[C@H](C)CN([C@H](C)CO)C(=O)c2cc(NC(=O)CCC(F)(F)F)ccc2O1
  30[16.7 µM] | 35
C[C@H]1CCCCO[C@@H](CN(C)Cc2ccc(C(=O)O)cc2)[C@@H](C)CN([C@@H](C)CO)C(=O)c2cc(NS(=O)(=O)c3ccc(F)cc3)ccc2O1
  -18[16.7 µM] | 10
C[C@H](CO)N1C[C@H](C)[C@@H](CN(C)C(=O)Nc2ccc(C(F)(F)F)cc2)Oc2ccc(NC(=O)Nc3ccc(C(F)(F)F)cc3)cc2CC1=O
  6[16.7 µM] | -2
O=S(=O)(N[C@@H]1CC[C@H](CCn2cc(-c3ccccn3)nn2)O[C@H]1CO)c1cccc(F)c1
  -50[16.7 µM] | -9
COc1ccc(NC(=O)Nc2ccc3c(c2)C(=O)N([C@@H](C)CO)C[C@@H](C)[C@H](CN(C)C(=O)Nc2c(C)noc2C)OCCCC[C@@H](C)O3)cc1
  -13[16.7 µM] | -13
Cc1ccc(S(=O)(=O)Nc2cccc3c2O[C@@H](CN(C)S(=O)(=O)c2ccc(C)cc2)[C@H](C)CN([C@H](C)CO)C3=O)cc1
  -6[16.7 µM] | -14
COc1ccccc1NC(=O)N[C@@H]1CC[C@H](CCNC(=O)c2ccc3c(c2)OCO3)O[C@@H]1CO
  3[16.7 µM] | 11
C[C@@H]1CCCCO[C@@H](CN(C)S(=O)(=O)c2ccc(F)cc2)[C@H](C)CN([C@H](C)CO)C(=O)c2cc(NC(=O)Nc3cccc4ccccc34)ccc2O1
  -22[16.7 µM] | 1
COc1ccc(S(=O)(=O)Nc2cccc3c2O[C@H](CN(C)S(C)(=O)=O)[C@H](C)CN([C@@H](C)CO)C3=O)cc1
  -12[16.7 µM] | 11
COc1cccc(NC(=O)N[C@H]2C=C[C@H](CC(=O)N3CCCCC3)O[C@@H]2CO)c1
  6[16.7 µM] | -3
C[C@@H]1CN([C@@H](C)CO)C(=O)c2cc(-c3ccccc3)cnc2O[C@@H]1CN(C)Cc1ccccn1
  -20[16.7 µM] | -28
CNC[C@H]1Oc2ccc(NC(=O)NC3CCCCC3)cc2CC(=O)N([C@H](C)CO)C[C@@H]1C
  13[16.7 µM] | -1
CC(C)NC(=O)Nc1ccc2c(c1)C(=O)N([C@H](C)CO)C[C@H](C)[C@@H](CN(C)S(C)(=O)=O)OCCCC[C@@H](C)O2
  -8[16.7 µM] | 14
COc1ccc(S(=O)(=O)N(C)C[C@H]2Oc3ccc(NS(=O)(=O)c4cn(C)cn4)cc3CC(=O)N([C@H](C)CO)C[C@@H]2C)cc1
  -3[16.7 µM] | -9
COc1ccc(S(=O)(=O)Nc2ccc3c(c2)CC(=O)N([C@H](C)CO)C[C@H](C)[C@H](CN(C)C(=O)NC2CCCCC2)O3)cc1
  -11[16.7 µM] | 8
Cc1noc(C)c1S(=O)(=O)Nc1ccc2c(c1)C(=O)N([C@@H](C)CO)C[C@H](C)[C@@H](CN(C)S(=O)(=O)c1ccccc1)OCCCC[C@H](C)O2
  7[16.7 µM] | 0
CNC(=O)C[C@H]1CC[C@H]2[C@@H](COc3ccc(NC(=O)NC4CCCC4)cc3C(=O)N2C)O1
  5[16.7 µM] | -2
C[C@@H]1CN([C@@H](C)CO)C(=O)c2cc(NS(=O)(=O)c3cccs3)ccc2O[C@@H]1CN(C)Cc1ccc(C(F)(F)F)cc1
  7[16.7 µM] | 0
CO[C@H]1CN(C)C(=O)c2cc(NC(C)=O)ccc2OC[C@H](C)N(C(=O)CN2CCOCC2)C[C@@H]1C
  2[16.7 µM] | -4
COc1ccc(C#Cc2ccc3c(c2)O[C@H](CN(C)C(=O)NC2CCCCC2)[C@@H](C)CN([C@@H](C)CO)S3(=O)=O)cc1
  5[16.7 µM] | -13
Cc1ccc(S(=O)(=O)N(C)C[C@@H]2Oc3ncc(C#CCN(C)C)cc3C(=O)N([C@H](C)CO)C[C@@H]2C)cc1
  58[16.7 µM] | 29
C/C=C/c1ccc2c(c1)O[C@@H](CN(C)C(=O)NC(C)C)[C@@H](C)CN([C@@H](C)CO)S2(=O)=O
  6[16.7 µM] | 8
CO[C@@H]1CN(C)C(=O)c2ccc(NC(=O)C3CCC3)cc2OC[C@H](C)N(C(=O)NC(C)C)C[C@@H]1C
  -16[16.7 µM] | 2
O=C(C[C@@H]1C[C@H]2c3cc(NC(=O)C4CCC4)ccc3O[C@H]2[C@@H](CO)O1)NCC1CC1
  2[16.7 µM] | 0
Cc1noc(C)c1S(=O)(=O)Nc1ccc2c(c1)C(=O)N([C@H](C)CO)C[C@@H](C)[C@@H](CN(C)C(=O)NC1CCCCC1)OCCCC[C@H](C)O2
  -18[16.7 µM] | 3
C[C@H](CO)N1C[C@H](C)[C@H](CN(C)C(=O)NC2CCCCC2)Oc2c(NC(=O)C3CCOCC3)cccc2C1=O
  2[16.7 µM] | 0
COc1ccccc1NC(=O)N[C@@H]1CC[C@@H](CC(=O)N[C@H](C)c2ccccc2)O[C@H]1CO
  -9[16.7 µM] | -1
CCC(=O)N[C@@H]1CC[C@H](CCn2cc(CN(C)C)nn2)O[C@H]1CO
  -3[16.7 µM] | -17
C[C@@H]1CN([C@H](C)CO)C(=O)c2cc(NS(=O)(=O)c3ccc(F)cc3)ccc2O[C@@H](C)CCCCO[C@@H]1CN(C)C(=O)c1ccccc1
  32[16.7 µM] | 6
CS(=O)(=O)N1[C@H](C#N)[C@H](c2ccc(C#Cc3cccc(F)c3)cc2)[C@H]1CO
  -17[16.7 µM] | -9
C[C@H]1CN([C@@H](C)CO)C(=O)c2cc(NC(=O)CCN3CCOCC3)ccc2O[C@@H]1CN(C)CC1CCCCC1
  -1[16.7 µM] | 3
C[C@H](CO)N1C[C@H](C)[C@H](CN(C)S(=O)(=O)c2ccc(F)cc2)Oc2ncc(/C=C/c3ccccc3)cc2C1=O
  50*![16.7 µM] | 2&6
C[C@@H]1CN([C@@H](C)CO)C(=O)c2cccc(NC(=O)Nc3ccc(F)cc3)c2O[C@@H]1CN(C)S(=O)(=O)c1ccc(F)cc1
  19[16.7 µM] | 1
Cc1noc(C)c1S(=O)(=O)Nc1ccc2c(c1)CC(=O)N([C@H](C)CO)C[C@H](C)[C@H](CN(C)Cc1ccc(C(=O)O)cc1)O2
  -13[16.7 µM] | -11
C[C@@H]1CCCCO[C@@H](CN(C)C(=O)NC2CCCCC2)[C@H](C)CN([C@@H](C)CO)C(=O)c2cc(NC(=O)c3ccccc3)ccc2O1
  17[16.7 µM] | 6
C[C@@H]1CN([C@H](C)CO)S(=O)(=O)c2ccc(C#Cc3ccccn3)cc2O[C@@H]1CN(C)Cc1cccc(F)c1
  -10[16.7 µM] | 6
CC(C)CC#Cc1ccc2c(c1)O[C@@H](CN(C)S(=O)(=O)c1ccc(F)cc1)[C@@H](C)CN([C@H](C)CO)S2(=O)=O
  62*[16.7 µM] | -13
C[C@@H]1CN([C@@H](C)CO)C(=O)Cc2cc(NC(=O)NC3CCCCC3)ccc2O[C@@H]1CN(C)Cc1ccc(-c2ccccc2)cc1
  19[16.7 µM] | -10
CC(C)NC(=O)N[C@H]1C=C[C@@H](CC(=O)NCCCN(C)C)O[C@H]1CO
  7[16.7 µM] | -8
Cc1ccc(-c2cnc3c(c2)C(=O)N([C@H](C)CO)C[C@H](C)[C@@H](CN(C)CC2CCCC2)O3)cc1
  -5[16.7 µM] | 1
C[C@H]1CN([C@@H](C)CO)C(=O)c2cccc(NS(=O)(=O)c3cn(C)cn3)c2O[C@@H]1CN(C)C(=O)Nc1ccccc1
  -162[16.7 µM] | -9
C[C@@H]1CCCCO[C@@H](CN(C)S(=O)(=O)c2ccc(Cl)cc2)[C@@H](C)CN([C@H](C)CO)C(=O)c2cc(NC(=O)c3ccncc3)ccc2O1
  24[16.7 µM] | 0
C[C@H](CO)N1C[C@H](C)[C@@H](CN(C)S(=O)(=O)c2cn(C)cn2)Oc2ccc(NS(=O)(=O)c3ccc(F)cc3)cc2CC1=O
  -9[16.7 µM] | 4
CO[C@H]1CN(C)C(=O)c2cc(NC(C)=O)ccc2OC[C@@H](C)N(Cc2ccccc2F)C[C@@H]1C
  8[16.7 µM] | -20
COc1ccc(S(=O)(=O)N(C)C[C@H]2Oc3ccc(NC(=O)Nc4ccc5c(c4)OCO5)cc3C(=O)N([C@H](C)CO)C[C@H]2C)cc1
  -6[16.7 µM] | -25
CCC(=O)N(C)C[C@@H]1Oc2ncc(-c3ccc(C)cc3)cc2C(=O)N([C@@H](C)CO)C[C@@H]1C
  -13[16.7 µM] | 14
C[C@H]1CCCCO[C@@H](CN(C)S(=O)(=O)c2ccc(F)cc2)[C@@H](C)CN([C@@H](C)CO)C(=O)c2cc(NC(=O)Nc3ccc(F)cc3)ccc2O1
  -8[16.7 µM] | -12
O=C(C[C@@H]1C=C[C@@H](NC(=O)Nc2ccccc2)[C@@H](CO)O1)NCc1cccc(F)c1
  35[16.7 µM] | -26
C[C@@H]1CN([C@H](C)CO)C(=O)c2cc(NC(=O)Nc3ccccc3)ccc2O[C@@H](C)CCCCO[C@@H]1CN(C)C(=O)CCC(F)(F)F
  -8[16.7 µM] | -8
C[C@H](CO)N1C[C@H](C)[C@H](CN(C)Cc2ccc3c(c2)OCO3)OCCCC[C@H](C)Oc2ccc(NC(=O)CCCN(C)C)cc2C1=O
  16[16.7 µM] | 4
COc1ccc(S(=O)(=O)Nc2ccc3c(c2)CC(=O)N([C@@H](C)CO)C[C@H](C)[C@H](CN(C)C(=O)NC2CCCCC2)O3)cc1
  -6[16.7 µM] | -2
C[C@H]1CN([C@@H](C)CO)C(=O)Cc2cc(NS(=O)(=O)c3cccs3)ccc2O[C@@H]1CN(C)C(=O)NC1CCCCC1
  -23[16.7 µM] | 21
C[C@H](CO)N1C[C@H](C)[C@H](CN(C)C)Oc2cc(-c3cccc(C(=O)N(C)C)c3)ccc2S1(=O)=O
  15[16.7 µM] | -7
Cc1ccc(S(=O)(=O)N(C)C[C@H]2Oc3ccc(NC(=O)C4CCCCC4)cc3CC(=O)N([C@H](C)CO)C[C@@H]2C)cc1
  41[16.7 µM] | -2
COc1ccc(S(=O)(=O)Nc2cccc3c2O[C@H](CN(C)CC2CCCCC2)[C@@H](C)CN([C@@H](C)CO)C3=O)cc1
  -2[16.7 µM] | 0

# Reformatted with the structure last: 4 of the compounds above.
HIV Env fusion	UUG fidelity	Structure
-23[16.7 µM]	21	C[C@H]1CN([C@@H](C)CO)C(=O)Cc2cc(NS(=O)(=O)c3cccs3)ccc2O[C@@H]1CN(C)C(=O)NC1CCCCC1
15[16.7 µM]	-7	C[C@H](CO)N1C[C@H](C)[C@H](CN(C)C)Oc2cc(-c3cccc(C(=O)N(C)C)c3)ccc2S1(=O)=O
-13[16.7 µM]	-11	Cc1noc(C)c1S(=O)(=O)Nc1ccc2c(c1)CC(=O)N([C@H](C)CO)C[C@H](C)[C@H](CN(C)Cc1ccc(C(=O)O)cc1)O2
-8[16.7 µM]	-12	C[C@H]1CCCCO[C@@H](CN(C)S(=O)(=O)c2ccc(F)cc2)[C@@H](C)CN([C@@H](C)CO)C(=O)c2cc(NC(=O)Nc3ccc(F)cc3)ccc2O1

# (cont.)
# Sequence of screens: HIV Env fusion | UUG fidelity
COc1ccc(NC(=O)N[C@H]2CC[C@H](CCn3cc(-c4ccc(F)cc4)nn3)O[C@H]2CO)cc1
  -11[16.7 µM] | -4
CC(C)NC(=O)Nc1ccc2c(c1)C(=O)N([C@H](C)CO)C[C@H](C)[C@H](CN(C)C(=O)Nc1ccc(F)cc1)OCCCC[C@H](C)O2
  17[16.7 µM] | -3
COc1ccc(NC(=O)N(C)C[C@H]2OCCCC[C@@H](C)Oc3ccc(NS(=O)(=O)c4ccc(F)cc4)cc3C(=O)N([C@@H](C)CO)C[C@H]2C)cc1
  -15[16.7 µM] | 10
C[C@H](CO)N1C[C@H](C)[C@H](CN(C)C(=O)C2CCC2)Oc2ncc(-c3ccc(F)cc3)cc2C1=O
  17[16.7 µM] | 15
COc1ccc(NC(=O)N(C)C[C@@H]2Oc3ccc(NC(=O)Cc4ccccc4)cc3CC(=O)N([C@@H](C)CO)C[C@H]2C)cc1
  -13[16.7 µM] | 13
C[C@@H]1CCCCO[C@@H](CN(C)Cc2ccccc2)[C@H](C)CN([C@H](C)CO)C(=O)c2cc(NC(=O)Nc3ccc4c(c3)OCO4)ccc2O1
  -63[16.7 µM] | 1
C[C@H]1CN([C@@H](C)CO)C(=O)c2cc(NS(=O)(=O)c3cccs3)ccc2O[C@@H]1CN(C)S(=O)(=O)c1cn(C)cn1
  5[16.7 µM] | 3
Cc1ccc(S(=O)(=O)N[C@H]2C=C[C@@H](CC(=O)N3CCN(c4ccccc4)CC3)O[C@@H]2CO)cc1
  19[16.7 µM] | -21

# From PubChem
